# HSV replic up – increases HSV replication in cells. AID 1956. maximum fold increase. 220,000 compounds, 0.005% hits. HSV replication augmentation in cells, fold increase;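 active = peak rise of 1.5-fold or more in the series; tested in PC3 cells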;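 note: first round at 10 µM; read as green reporter fluorescence; hits show the peak of a series up to 25 µM; 1 = signal of infected wells without compound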
# RGS16-Gao – regulators of human RGS16-Galphao interaction. binding response (% of control), % at 10 µM. AID 1441. O15492+P09471. 220,000 compounds, 0.38% hits. bead-based flow cytometry RGS16-Galphao binding, fluorescence; actives lie on both sides;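 active = below 25% or above 175%, edge rows of some plates excepted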;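 note: Galphao activated by GDP with aluminum fluoride before binding; 100% = wells without compound and 0% = beads without RGS; some results beyond the cut were filed as inactive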
# Target sequence (O15492 whole entry, looked up): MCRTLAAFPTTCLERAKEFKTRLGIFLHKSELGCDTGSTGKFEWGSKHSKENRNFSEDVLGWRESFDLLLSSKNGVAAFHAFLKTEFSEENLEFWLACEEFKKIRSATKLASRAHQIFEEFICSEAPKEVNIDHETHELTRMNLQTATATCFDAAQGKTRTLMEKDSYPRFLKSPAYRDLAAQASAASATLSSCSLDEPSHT
# Target sequence (P09471 whole entry, looked up): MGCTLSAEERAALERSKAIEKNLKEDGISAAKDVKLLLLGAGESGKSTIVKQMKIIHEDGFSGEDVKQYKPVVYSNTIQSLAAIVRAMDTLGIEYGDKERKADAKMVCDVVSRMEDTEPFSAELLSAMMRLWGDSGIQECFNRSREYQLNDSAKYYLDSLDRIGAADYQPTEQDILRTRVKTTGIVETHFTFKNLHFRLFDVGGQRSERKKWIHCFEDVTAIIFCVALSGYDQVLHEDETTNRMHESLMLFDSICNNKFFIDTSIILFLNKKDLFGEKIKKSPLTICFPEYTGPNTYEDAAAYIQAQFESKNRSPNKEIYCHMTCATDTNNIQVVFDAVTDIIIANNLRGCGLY
# INS promoter inh – TRM-6 insulin promoter activity inhibition; 130,000 compounds, 0.9% hits; TRM-6 cells (human fetal islet line), insulin promoter-eGFP reporter, imaging; reporter expression induced with tamoxifen; inhibition, % at 2 µM;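 active = inhibition above the mean plus 3 SD, with well images judged a real hit on visual review, cut at about 60% in these data, passing the limit was not always enough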
# PKD1 inh – inhibitors of human PKD1 kinase | Q15139 | PKD1 kinase fluorescence polarization assay | inhibition, %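 (about 10 µM by stock and volumes)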 | 200,000 compounds, 0.056% hits | AID 797;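 active = inhibition of 50% or more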;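 note: controls were vehicle for no effect and a reference inhibitor for full effect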
# GALR2 ag – GALR2 (human) receptor agonism; activation, %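 (tested at 5 µM)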; GALR2-expressing cells, agonist activation read-out; 140,000 compounds, 0.48% hits;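 active = above mean plus 3 SD of all compounds, about 5% in these data, not always enough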;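 note: 0% = vehicle buffer wells and 100% = reference agonist at full effect; tested in CHO reporter cells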
# Target sequence (O43603 whole entry, looked up): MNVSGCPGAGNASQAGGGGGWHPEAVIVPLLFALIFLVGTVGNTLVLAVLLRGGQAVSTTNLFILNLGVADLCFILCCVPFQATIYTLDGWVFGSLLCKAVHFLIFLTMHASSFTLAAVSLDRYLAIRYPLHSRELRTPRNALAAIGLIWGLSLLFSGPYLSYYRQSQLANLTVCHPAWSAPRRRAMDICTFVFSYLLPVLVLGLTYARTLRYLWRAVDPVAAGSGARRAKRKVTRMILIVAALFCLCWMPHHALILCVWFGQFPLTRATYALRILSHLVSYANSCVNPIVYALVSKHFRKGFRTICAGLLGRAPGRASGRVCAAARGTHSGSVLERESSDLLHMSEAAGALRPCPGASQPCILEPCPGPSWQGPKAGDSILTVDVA
# INS promoter inh cell count – also measured in INS promoter inh; calls as there; normalized cell count, %; measured here: cell count, toxicity; reference of the scale not given here;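 cells exposed to compound for 48 h; stained nuclei by imaging scaled within each plate; lower means fewer cells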
# HSV replic up primary fold – second read-out of HSV replic up, no call of its own (marks repeat the call); fold increase; compound at 10 µM; measured here: primary screen fold increase 10 uM; tested in PC3 cells;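 GFP signal in the first replicate; 1 = infected wells without compound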
# * marks the source's active call; other numbers are inactive results; i = inactive; nt = not tested or not shown. Hits appear at their usual frequency; overall some 1.3% were active at least once.
# Fields – HSV replic up primary fold	GALR2 ag	HSV replic up	PKD1 inh	INS promoter inh	RGS16-Gao	INS promoter inh cell count
> N#CCCN1CCN(S(=O)(=O)c2cc(Cl)ccc2Cl)CC1
→ 1.1	nt	i	-3	0	102	148
> CCCC(=O)Nc1nc2n(n1)C(c1ccccc1)CC(=O)N2 (configuration not stated)
→ 0.85	-1.2	i	-14	40	97	85
> COC(=O)c1ccc(CN2CCN(Cc3ccc(C(=O)OC)o3)CC2)o1
→ 1	-1.4	i	-6	6	100	110
> CC1c2ccccc2SC(CCCN(C)C)c2ccccc21 (configuration not stated)
→ 0.63	-0.1	i	-1	-50	95	98
> CCOC(=O)CSc1nc(-c2ccccc2)cc(C(F)(F)F)n1
→ 0.87	-0.8	i	-8	40	107	182
> CC(c1ccon1)N(C)C(=O)CCc1nnc(CCCCc2ccccc2)o1 (configuration not stated)
→ 1.1	nt	i	-8	nt	105	nt
> COc1cc2c(cc1NC(=O)Nc1ccc(F)cc1)oc1ccccc12
→ 0.81	-0.9	i	-2	11	107	106
> CCOC(=O)c1c(/N=C/N(C)C)sc(/C=N/Nc2ccccc2)c1-c1ccc(Cl)cc1
→ 1	-1.7	i	-19	-12	98	88
> CCn1c(C)[n+](CC)c2ccc(S(=O)(=O)N(C)C)cc21
→ 1.5	nt	i	-8	nt	96	nt
> NCCCCCC(=O)N/N=C/c1coc2ccccc2c1=O
→ 0.96	nt	i	nt	nt	99	nt
> O=C(CCc1ccccc1)NNC(=S)NC(=O)c1ccccc1
→ 0.84	-1.9	i	1	nt	95	nt
> CCN(CC)CCN(C(=O)c1ccccc1OC)c1nc2ccc(F)cc2s1
→ 0.88	nt	i	-10	17	100	121
> COc1ccc(/C=N/NC(N)=S)cc1
→ 1.2	nt	i	nt	nt	106	nt
> Cc1cc(C)c(NC(=O)COc2nncc3ccccc23)c(C)c1
→ 0.96	0.2	i	-2	20	102	91
> COc1c(C)cc(Br)cc1C(=O)O
→ 0.97	-1.7	i	-14	36	104	109
> Cc1c(C#N)c(O)n(C)c(=O)c1N=Nc1ccc(S(N)(=O)=O)cc1
→ 0.7	nt	i	-3	65*	101	129*
> CCOC(=O)Cn1cnc2c(C#N)c3n(c2c1=O)CCCCC3
→ 0.88	-1.0	i	-2	nt	99	nt
> O=C(CCSCCc1ccccn1)Nc1c(F)c(F)c(F)c(F)c1F
→ 0.92	-0.8	i	0	-69	103	158
> CCOC(=O)C1CCN(C(=O)CN(Cc2ccccc2)S(C)(=O)=O)CC1
→ 0.88	-1.7	i	0	35	95	122
> c1ccc(Cn2c(SCc3cn4cccnc4n3)nnc2-c2ccco2)cc1
→ 0.97	-2.2	i	-3	-27	97	108
> NC(=O)N/N=C/c1c(O)ccc2oc3c(c12)CCCC3
→ 1.4	nt	i	nt	nt	98	nt
> Cc1cc(C(=O)N/N=C/c2cc(Br)ccc2OC(=O)c2ccc(Br)cc2)n[nH]1
→ 0.81	-1.9	i	-5	-42	105	76
> COc1ccccc1/C=N/Nc1nncc2ccccc12
→ 0.95	-0.9	i	-6	nt	98	nt
> Cc1ccc(S(=O)(=O)Oc2ccc(/C=N/NC(=O)c3nn(C)cc3Cl)cc2)cc1
→ 0.84	-0.4	i	24	-14	96	109
> Cc1ccc(S(C)(=O)=NC(=O)NC(=O)c2c(F)cccc2Cl)cc1 (configuration not stated)
→ 1	nt	i	nt	nt	101	nt
> CCOC(=O)C1CCN(S(=O)(=O)C(F)(F)c2nc3ccccc3s2)CC1
→ 0.78	-1.2	i	-12	nt	102	nt
> Cc1ccc(Nc2nc(/N=C/NO)n[nH]2)cc1C
→ 0.94	nt	i	-2	19	97	112
> Cc1ccc(C(=O)n2nc(C#N)c(C#N)c2N)cc1
→ 1	nt	i	nt	nt	107	nt
> O=C(NCCCN=C1NS(=O)(=O)c2ccccc21)c1ccco1
→ 0.75	-1.0	i	-4	12	108	104
> COC(=O)C(CC(=O)c1cccc(OC)c1)c1ccc(F)cc1 (configuration not stated)
→ 0.94	nt	i	-1	27	113	157

# Given tab-delimited: entries from further up.
mol	HSV replic up primary fold	GALR2 ag	HSV replic up	PKD1 inh	INS promoter inh	RGS16-Gao	INS promoter inh cell count
Cc1cc(C)c(NC(=O)COc2nncc3ccccc23)c(C)c1	0.96	0.2	i	-2	20	102	91
COc1c(C)cc(Br)cc1C(=O)O	0.97	-1.7	i	-14	36	104	109
Cc1c(C#N)c(O)n(C)c(=O)c1N=Nc1ccc(S(N)(=O)=O)cc1	0.7	nt	i	-3	65*	101	129*
CCOC(=O)Cn1cnc2c(C#N)c3n(c2c1=O)CCCCC3	0.88	-1.0	i	-2	nt	99	nt
O=C(CCSCCc1ccccn1)Nc1c(F)c(F)c(F)c(F)c1F	0.92	-0.8	i	0	-69	103	158
CCOC(=O)C1CCN(C(=O)CN(Cc2ccccc2)S(C)(=O)=O)CC1	0.88	-1.7	i	0	35	95	122
c1ccc(Cn2c(SCc3cn4cccnc4n3)nnc2-c2ccco2)cc1	0.97	-2.2	i	-3	-27	97	108
NC(=O)N/N=C/c1c(O)ccc2oc3c(c12)CCCC3	1.4	nt	i	nt	nt	98	nt
Cc1cc(C(=O)N/N=C/c2cc(Br)ccc2OC(=O)c2ccc(Br)cc2)n[nH]1	0.81	-1.9	i	-5	-42	105	76
COc1ccccc1/C=N/Nc1nncc2ccccc12	0.95	-0.9	i	-6	nt	98	nt
Cc1ccc(S(=O)(=O)Oc2ccc(/C=N/NC(=O)c3nn(C)cc3Cl)cc2)cc1	0.84	-0.4	i	24	-14	96	109
Cc1ccc(S(C)(=O)=NC(=O)NC(=O)c2c(F)cccc2Cl)cc1 (configuration not stated)	1	nt	i	nt	nt	101	nt
CCOC(=O)C1CCN(S(=O)(=O)C(F)(F)c2nc3ccccc3s2)CC1	0.78	-1.2	i	-12	nt	102	nt
Cc1ccc(Nc2nc(/N=C/NO)n[nH]2)cc1C	0.94	nt	i	-2	19	97	112
Cc1ccc(C(=O)n2nc(C#N)c(C#N)c2N)cc1	1	nt	i	nt	nt	107	nt
O=C(NCCCN=C1NS(=O)(=O)c2ccccc21)c1ccco1	0.75	-1.0	i	-4	12	108	104

# Next part.
# Fields – HSV replic up primary fold	GALR2 ag	HSV replic up	PKD1 inh	INS promoter inh	RGS16-Gao	INS promoter inh cell count
> CCOC(=O)C1(CCOc2ccccc2)CCN(Cc2ccc(CO)o2)CC1
→ 0.99	nt	i	-8	nt	108	nt
> NS(=O)(=O)c1ccc(CCNC(=O)CSc2nc3ccsc3c(=O)n2CC(=O)O)cc1
→ 1.1	-1.4	i	1	-32	103	155
> COC(=O)c1ccc(OCCCCN2CC(C)OC(C)C2)cc1 (configuration not stated)
→ 0.96	nt	i	-4	nt	104	nt
> Cc1ccc([N+](=O)[O-])cc1NC(=O)C[n+]1ccccc1
→ 0.97	nt	i	3	-17	101	168
> O=C(NCc1ccc2c(c1)OCO2)C1CCCN1S(=O)(=O)c1ccc(Cl)cc1 (configuration not stated)
→ 1	nt	i	-7	nt	96	nt
> CCOC(=O)CNC(=O)CSc1nc2c(C)cccc2cc1CC
→ 0.81	nt	i	-5	nt	104	nt
> COc1ccc(-c2ccnc3nc(/N=C/N(C)C)nn23)cc1
→ 1	nt	i	-8	-50	98	88
> COc1ccccc1NC(=O)/C=C/c1ccc2c(c1)OCO2
→ 0.8	nt	i	8	nt	104	nt
> CC(C)Nc1nc(Oc2cccc(Cl)c2Cl)cc(C(F)(F)F)n1
→ nt	-2.2	nt	9	47	90	88
> Cc1ccc(-n2nc3c(c2NC(=O)c2ccc(S(=O)(=O)N4CCOCC4)cc2)CSC3)c(C)c1
→ 0.7	-1.2	i	-5	-42	107	83
> Cc1ccc(OCC(=O)NCc2ccccc2)c([N+](=O)[O-])n1
→ 1	-1.7	i	8	nt	97	nt
> CCOC(=O)C(CCCCCCP(=O)(c1ccccc1)c1ccccc1)NC(C)=O (configuration not stated)
→ 0.98	nt	i	nt	nt	95	nt
> Nc1nc(SCC(=O)N2CCCC2)[nH]c(=O)c1-c1ccccc1
→ 0.92	-0.8	i	-3	-394	105	76
> N#Cc1c(-c2ccccc2)cc(C2CC2)nc1N
→ 1.1	-1.3	i	8	nt	99	nt
> NC(=O)c1ccc(Br)c(S(=O)(=O)N2CCCCC2)c1
→ 0.86	0.1	i	1	21	98	95
> Cc1cc(C(F)(F)F)n2nc(-c3cnn(C)c3C(F)(F)F)cc2n1
→ 0.86	-2.1	i	5	-120	87	180
> Nc1ccc2oc(-c3cccs3)nc2c1
→ 0.87	-0.2	i	4	nt	29	nt
> CC(NC(=O)CN1C(=O)COc2ccccc21)c1ccccc1 (configuration not stated)
→ 0.85	-2.0	i	-5	nt	100	nt
> COc1cccc(-n2nnc3c(=O)n(Cc4ccc(Cl)cc4)cnc32)c1
→ 1	-0.7	i	-8	29	100	81
> COc1cccc(C(=O)CSc2nnc(COc3cccc4cccnc34)o2)c1
→ 0.79	-1.8	i	-15	-87	105	74
> CCOC(=O)N1CCN(c2c(N3CCc4ccccc4C3)c(=O)c2=O)CC1
→ 1	-0.8	i	1	-14	102	135
> O=C(N/N=C/c1cc(Cl)ccc1O)c1ccccc1Br
→ 0.94	nt	i	-7	nt	97	nt
> CCn1ncc(/C=C/C(=O)c2ccccc2)c1C
→ 0.96	-1.2	i	-6	-107	84	33
> CC1(C)CC(=O)C=C(N2CCCC2)C1
→ 1.3	-0.7	i	-3	-76	109	103
> COC(=O)c1cc(C(=O)NCCC(C)C)cc([N+](=O)[O-])c1
→ 1	nt	i	-1	nt	101	nt
> CC1(C)CC(CCNC(=O)c2ccco2)CC(C)(C)N1
→ 0.88	-2.6	i	-9	0	96	56
> COc1ccc(C(=O)NCCN2CCCC2)cc1OC
→ 0.93	-0.7	i	-2	8	105	108
> CCCOc1ccc(C(C)(O)CN2CCOCC2)cc1 (configuration not stated)
→ 0.95	0.0	i	-4	nt	101	nt
> CCCn1c(SCC(=O)Nc2nccs2)nnc1-c1cccnc1
→ 1.1	-0.2	i	2	6	104	81
> Cn1ccnc1SCC(=O)Nc1sccc1C#N
→ 1	-1.7	i	-6	50	96	62
> O=C(NC1CCS(=O)(=O)C1)c1ccc(-c2ccc(Br)cc2)o1 (configuration not stated)
→ nt	-0.8	nt	3	nt	100	nt
> Cc1c(Cc2ccccc2)c(NCCCO)n2c(nc3ccccc32)c1C#N
→ 0.85	nt	i	nt	nt	100	nt
> O=C(C[n+]1cc(-c2ccccc2)n2c1CCCCC2)c1ccc(Br)cc1
→ 0.93	nt	i	-8	nt	102	nt
> CSc1ccccc1C(=O)Nc1nc2ccccc2c(=O)[nH]1
→ 1.1	nt	i	4	nt	96	nt
> CCCc1c(C(=O)O)cnn1-c1ccc(Cl)cc1
→ 1.4	nt	i	nt	nt	103	nt
> COC(=O)c1c(/N=C/N(C)C)sc2c1CCN(c1ncc(C(F)(F)F)cc1Cl)C2
→ 0.86	-0.2	i	0	-35	103	73
> Cc1sc2nc(CN3CCCCC3)nc(Nc3ccc4c(c3)OCCO4)c2c1C
→ 0.58	nt	i	1	0	96	116

# Screening results (PubChem BioAssay)
